Screens deposited in PubChem BioAssay by ICCB-Longwood Screening Facility, Harvard Medical School.
LANA-nucl inh: inhibitors of KSHV LANA binding to nucleosomes. FITC-LANA1-23 / chicken nucleosome fluorescence polarization; hits give low values. z-score (no concentration beside the values). actives 0.3% (n = 51,000). AID 720717;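 active means both repeat wells score below -2 in polarization z-score versus plate sample wells, excluding overly bright wells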;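 further: 100 nL library stock added to about 30 µL; numbers are from one replicate; some results filed as inactive read as strong as hits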
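Assay system: purified chicken nucleosomes with FITC-labelled LANA N-terminal peptide (1-23) / Probe or stimulus: 50 nM FITC-LANA1-23 probe / Compound dosing: pin-transferred compound, 100 nL / Times: compound with peptide–nucleosome mix 10–45 min at room temperature / Technique: fluorescence polarization, 480 nm excitation, 535 nm parallel and perpendicular emission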
Ab BasE inh: BasE siderophore biosynthesis inhibition; purified BasE, fluorescence polarization binding displacement; inhibition, % (no concentration beside the values); actives 0.1% (n = 84,000);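 active means both replicates above 25% with normal brightness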;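 further: 0% = negative plate control signal and 100% = positive plate control signal; stock transfer was 100 nL into about 30 µL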
* marks the source's active call; other numbers are inactive results; / = no result given; & = joins results of further samples.

SMILES,LANA-nucl inh,Ab BasE inh
CCCCC1=NN2C(=N)/C(=C\c3cccn3-c3ccc(OC)c(Cl)c3)C(=O)N=C2S1,-0.26,-3.5
Cc1c(C(=O)O)oc2ccc3c(c12)C(O)CC1(CCCC1)O3 (stereo not given),2.2,-1.7
COC(=O)c1cc(NC(=O)c2c(-c3ccccc3)noc2C)cc(C(=O)OC)c1,-0.23,0.9
O=c1cc(CO)oc(C(Nc2ccccn2)c2ccccc2O)c1O (stereo not given),/,2.6
COc1cccc(NC(=O)CSc2cccc[n+]2[O-])c1,/,3.1
S=c1cc(-c2ccccc2)oc(-c2ccccc2)c1,/,2.1
COc1ccc(-c2c(C)c3ccc(O)cc3oc2=O)cc1OC,0.35,-0.5
COc1ccc(NS(=O)(=O)c2ccc3c(c2)CCO3)cc1,2.7,-3.5
COc1ccccc1NC(=O)C(C)OC(=O)c1ccc(NS(=O)(=O)c2ccc3[nH]c(=O)[nH]c3c2)cc1 (stereo not given),/,-3.3
O=C(OCc1ccccc1)c1cc2ccccc2[nH]1,/,0.7
Cc1noc(C)c1COc1cccc(C(=O)N[C@@H](Cc2ccccc2)c2nc3ccccc3[nH]2)c1,/,1.4
O=C(Nc1cc(C(F)(F)F)ccc1Br)c1ccccc1F,/,-0.6
COc1ccc(S(=O)(=O)NC(N)=NCCc2ccc(Cl)cc2)cc1OC,-0.4,-4.4
Cc1c(SC(F)F)cc(SC(F)F)cc1SC(F)F,/,1.2
CS/C(=N\S(=O)(=O)c1cccs1)Nc1ccc(F)cc1,/,-0.3
O=C(CN1CCN(Cc2ccccc2)CC1)NN=C/C=C\c1ccco1,0.38,1.6
CCOc1ccccc1NC(=O)COC(=O)CCN1C(=O)C2CC=CCC2C1=O (stereo not given),/,-1.5
CCn1c(SCC(=O)Nc2ccc(S(=O)(=O)N3CCCC3)cc2)nnc1-c1ccccc1,/,-5.9
CCN1CCN(c2ccc(NC(=O)Cc3ccsc3)cc2)CC1,/,2.1
CCn1cc(CCCC(=O)NC(C)C)c2ccccc21,-0.27,3.7
CC(C)(C)c1ccc(CN2C3=NC(=O)CN3c3ccccc32)cc1,0.45,-1.9
O=C(N=S1CCN(C(=O)c2ccc(Cl)cc2)CC1)c1ccc(Cl)cc1,/,1.8
Brc1ccc(CNc2ccc3c(c2)ncn3-c2ccccc2)cc1,/,2.7
CCOC(=O)N1CCC(NC(=O)c2ccccc2C(=O)O)CC1,/,1.6
CCc1ccc(NC(=O)N(C(C)C)C2CCN(C(C)=O)CC2)cc1,0.24,1.6
CCOc1ccc2oc(=O)cc(CN3CCN(C(=O)c4ccc5c(c4)OCO5)CC3)c2c1,2.4,-3.8
CCOc1ccccc1C1C(C#N)=C(SCC(=O)N2CCCC2)NC2=C1C(=O)CCC2 (stereo not given),/,13
Cc1cc(C)cc(C(=O)OCC(=O)c2cc(C)n(C)c2C)c1,/,1.0
Cc1ccc(NC(=O)NC(=O)CSc2nnc(C)n2C2CCCCC2)c(C)c1,/,0.5
CCNCc1ccc(OCc2ccccc2)cc1,/,1.2
CN(C)c1ccc(-c2nnc(-c3ccc(Cl)cc3)o2)cc1,-0.047,-1.8
CCCNC(=O)N1CCc2c([nH]c3ccccc23)C1c1ccccc1F (stereo not given),/,0.0
CCOc1ncccc1C(=O)OCCN1C(=O)c2ccccc2C1=O,/,1.3
O=C(O)CCC(=O)N1CCN(C2c3ccccc3-c3ccccc32)CC1,0.23,/
CC(C)(C)C1CCC(C(=O)OCC(=O)c2ccc[nH]2)CC1 (stereo not given),/,-0.1
COc1cccc(N(C(=O)c2ccco2)c2nc3ccccc3s2)c1,/,-1.1
CCOc1ccccc1NC(=O)Cn1c(=O)oc2cc(S(=O)(=O)NC3CCCC3)ccc21,-0.94,-2.3
CCCCn1nnc2sc3c(c2c1=O)CCCC3,1.3,0.4
Cc1ccccc1CN1CCN(CC(=O)NCCc2ccc(Cl)cc2)C1=O,-0.024,1.3
O=C1CCCC/C1=C/NCc1ccccc1,0.38,2.1
CC(C)(C)NC(=O)N1CCC(C(N)=O)CC1,0.24,2.0
CC1CCN(C(=O)/C=C/c2ccc3c(c2)OCO3)CC1,/,-1.1
FC(F)(F)C1NCCc2c1[nH]c1ccccc21 (stereo not given),/,-0.3
CC(C)c1ccc(NC(=O)NC(=O)c2ncon2)cc1,-0.56,0.5
CCOC(=O)c1cc(-c2csc(CS(=O)(=O)Cc3cccc(C(F)(F)F)c3)n2)on1,-0.28,-0.9
Cn1nc(C(C)(C)C)cc1N,/,-1.1
C/C(N)=C(/C#N)C(=O)CSc1cc(C)c(C#N)c2nc3ccccc3n12,/,0.0
O=C(COc1coc(CN2CCc3ccccc32)cc1=O)NC1CCCC1,0.71,0.3
c1ccc(-c2nnc(C3CC3)nc2-c2ccccc2)cc1,/,1.2
CCCC(CC(=O)N1CCN(c2ccccc2Cl)CC1)n1ccnc1 (stereo not given),/,-0.6

(continued)
SMILES,LANA-nucl inh,Ab BasE inh
O=C1Nc2ccccc2S/C1=C/c1ccc(C(=O)N2CCC3(CC2)OCCO3)cc1,0.14,-1.1
Cc1cc2cc(CNC(=O)CC(C)(C)C)ccc2[nH]1,-0.92,-1.4
CCOC(=O)c1ccc(NC(=O)CCN2N=C(c3ccccc3)CCC2=O)cc1,-1.1,0.2
CC(C)=CC(=O)Nc1nc2ccc(C)cc2s1,1.1,1.2
CC(=O)Oc1c(Br)c(=O)[nH]c2ccccc12,0.55,-0.5
Cc1cc(C(=O)NC2CCSc3ccccc32)no1 (stereo not given),/,-0.6
COc1cccc(-n2c(SC3CCOC3=O)nc3ccccc3c2=O)c1 (stereo not given),/,0.9
CCC1CCCCN1C(=O)c1cc2cc(OC)ccc2oc1=O (stereo not given),-1.2,0.2
CCOc1ccccc1NC(=O)CSc1nc(O)cc(=O)n1C1CCCC1,/,0.3
Cc1cnc(N(C(=O)c2c(-c3ccccc3)noc2C)C(=O)c2c(-c3ccccc3)noc2C)c(C)n1,/,1.5
CCCCC12CN3CCN(CC(C3)C1=N/N=C1\C3CN4CCN(C3)CC1(CCCC)C4)C2,0.21,-0.4
Cc1ccc(C(=O)Cn2cnc3c2c(=O)n(C)c(=O)n3C)cc1,-0.65,1.2
COc1ccc(CCn2c(C)cc(C(=O)COC(=O)c3cccc(-n4cnnn4)c3)c2C)cc1,/,3.2
Cc1cc2c(=O)n(Cc3ccco3)c(SCC(=O)c3cccs3)nc2s1,-0.23,-9.2
Cc1cc(-c2csc(N)n2)c(C)s1,/,-0.4
COc1cccc(-c2n[nH]c3c2C(c2ccccc2)NC3=O)c1 (stereo not given),0.55,0.7
Cc1cc(C)c(NC(=O)CSc2nc3c(c(-c4ccco4)c2C#N)CCCC3)c(C)c1,-0.031,0.3
CC(C(=O)NCc1ccc2c(c1)OCO2)n1ccc2cc(S(=O)(=O)N3CCCCCC3)ccc21 (stereo not given),/,1.2
COc1ccc(CCN2C(=O)CN=C2Nc2ccc(F)cc2)cc1OC,-1.6,-1.5
O=C(CC(c1ccccc1)c1ccccc1)NCc1ccco1,0.35,-1.3
CC(NC(=O)c1ccco1)C(=O)NCc1ccccc1CN(C)C (stereo not given),/,-1.9
CCOc1ccc(C(=O)C(C)Sc2nnnn2-c2ccc(OC)cc2)cc1 (stereo not given),/,2.6
Cc1cc(Cn2cnc3ccccc3c2=O)no1,/,-3.7
O=C(c1ccc(O)cc1)N1N=CCC1(O)C(F)(F)F (stereo not given),/,17
CC12CCC(C(=O)N3CCc4ccccc43)(CC1=O)C2(C)C (stereo not given),-0.5,5.2
COc1ccc(-c2cc(=O)c3c(O)cc(O)cc3o2)cc1,0.31&-0.46,-0.5&-1.1
O=C(Cc1c(F)cccc1Cl)OCC(=O)c1ccc2c(c1)OCO2,/,1.4
Cc1cc(C)c(O)c(N)c1,0.002,-1.9
Cc1ccc(NC(=O)N2CCC(CN3CCOCC3)CC2)cc1F,-0.98,0.4
O=C(O)c1c[nH]c(=O)c2ccccc12,-0.011,/
O=C(NCC1COc2ccccc2O1)c1cn(-c2ccc(F)cc2)nn1 (stereo not given),1,-1.2
NC(=O)N/N=C(/C=C/c1ccccc1)C1(O)CCCCC1,-0.05,-2.0
O=C(/C=C/c1cn(-c2ccccc2)nc1-c1cc2ccccc2o1)N1CCOCC1,/,1.2
Cc1c(C(=O)OCC(=O)N(C)C2(C#N)CCCCC2)oc2ccc(Br)cc12,/,1.4
CCOC(=O)c1oc2ccccc2c1COC(=O)c1ccc(S(=O)(=O)N2CCCC2)cc1,/,2.2
O=C1CCC(C(=O)NC2CCCCCC2)=NN1,/,0.5
CCOC(=O)c1cnc2ccc(OCC)cc2c1NCCN(C)C,1.3,-1.6
O=C1OC(c2ccc3c(c2)CCC3)c2ccccc21 (stereo not given),-0.47,/
COCCNCc1ccccc1,/,-0.2
CCn1c(-c2ccc3c(c2)OCCO3)cnc1SCC(=O)Nc1ccccc1C(=O)NC1CC1,/,0.8

5 records drawn at random from the list so far:
SMILES,LANA-nucl inh,Ab BasE inh
CCOC(=O)c1cnc2ccc(OCC)cc2c1NCCN(C)C,1.3,-1.6
COCCNCc1ccccc1,/,-0.2
NC(=O)N/N=C(/C=C/c1ccccc1)C1(O)CCCCC1,-0.05,-2.0
O=C1OC(c2ccc3c(c2)CCC3)c2ccccc21 (stereo not given),-0.47,/
O=C(/C=C/c1cn(-c2ccccc2)nc1-c1cc2ccccc2o1)N1CCOCC1,/,1.2

Other structures.
SMILES,LANA-nucl inh,Ab BasE inh
COc1ccc(CC(=O)N/N=C2/CC(=O)CC(C)(C)C2)cc1,0.95,-0.2
O=C(OC1CCSC1)c1cc(C(F)(F)F)cc(C(F)(F)F)c1 (stereo not given),/,-1.1
CCNc1nc(SCCOc2ccccc2)nc(N(C)C)n1,0.29,-1.6
O=S(=O)(c1ccc(Cl)cc1)N(Cc1ccccc1)S(=O)(=O)c1ccc(Cl)cc1,/,-0.4
CCS(=O)(=O)C1=NSC2=NC(=O)/C(=C\c3ccco3)C(=N)N21,-0.48,1.9
Nc1nc(CC(=O)c2ccccc2)cs1,/,-2.8
S=c1n(CN2CCCCC2)c2ccccc2n1CN1CCCCC1,0.37,-1.0
Cn1c(=O)oc2cc(N)ccc21,-0.19,-1.1
O=c1ccc(C(F)(F)F)cn1Cc1ncc(-c2ccccc2)o1,/,-2.6
Cc1ccc2c(c1)c1c3n2CCN(C/C(=N/O)c2ccc(Br)cc2)C3CCC1 (stereo not given),/,-4.0
NCCCc1ccc(F)cc1,0.99,-12
Cc1ccc(NC(=O)CN(C)C(=O)CSc2nnc(-c3ccccc3)n2N)cc1,/,2.2
O=C(Nc1ccccc1)N1CCCC(c2nc(-c3cccs3)no2)C1 (stereo not given),-1,-0.1
CCOC(=O)/C(C#N)=C/c1cn(C(=O)c2ccncc2)nc1-c1ccccc1,/,-0.6
CC(=O)Nc1ncc(CN2CCCCC2)s1,-0.82,1.6
O=C(NCc1ccc2c(c1)OCO2)[C@@H](c1ccccc1)N1Cc2ccccc2C1=O,-1,2.6
O=C(CN1c2cccc3cccc(c23)S1(=O)=O)Nc1ccccc1,/,-1.9
O=C(CCC(=O)N1CC=C(c2c[nH]c3ccccc23)CC1)NC1CCCC1,-0.49,-0.4
O=c1c(N2CCCC2)csc2ccc(F)cc12,1.6,-1.2
O=C1CCCN1C(=O)CSc1nc(-c2ccccc2)cs1,/,1.7
Cc1noc(C)c1CN1C(=O)NC(Cc2ccccc2)(Cc2ccccc2)C1=O,/,1.9
Cc1ccc2c(c1)-c1c(cnn1CC(=O)Nc1ccccc1N1CCN(C)CC1)CO2,0.43,-0.6
CCN(CC)C(=O)c1sc2nc(-c3ccccc3)ccc2c1N,-0.22,-2.6
COc1ccccc1N(CC(=O)Nc1ccccc1)S(C)(=O)=O,/,2.9
CNC(=O)Nc1cccc(-c2ccnc(C)n2)c1,/,-3.5
CCC(C)NS(=O)(=O)c1ccc(NC(=O)c2cccs2)cc1 (stereo not given),-0.67,-0.4
CCOc1ccc(OCC)c(NC(=O)c2c(C)nc3ccccn23)c1,0.71,-1.7
CSc1nc(N)n2nc(-c3ccccc3)cc2n1,/,-1.5
O=C(/C=C/c1ccc2c(c1)OCO2)/C=C/c1ccc2c(c1)OCO2,/,1.0
Cn1c(SCC(=O)NCCN2C(=O)S/C(=C\c3ccccc3F)C2=O)nnc1-c1ccco1,/,0.1
CO[C@@]12[C@H](COC(N)=O)C3=C(C(=O)C(C)=C(N)C3=O)N1C[C@@H]1N[C@@H]12,-0.73&-0.12,0.9
O=C(O)CC(c1ccc(Cl)c(Cl)c1)N1Cc2ccccc2C1=O (stereo not given),1.1,/
O=c1ccc(S(=O)(=O)N2CCCC2)cn1Cc1c(-c2ccccc2)nc2sccn12,/,1.6
CCSc1nnc(-c2ccc(S(=O)(=O)N3CCOCC3)cc2)n1C,-0.65,2.2

Only part of the results is shown. The share of hits here may be higher or lower than overall.
